PI4K2A block: inhibitors of human PI4K2A; AID 1346378; purified PI4K2A, ADP-Glo luminescence, 1 h; stronger effect = lower value; activity change, negative = inhibition, % at 76.9 µM; Q9BTU6; 0.13% of 420,000 active; in the data active means activity change below about -50%; inconclusive means mostly about -30% to -49%;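 further: -100% = wells without enzyme as full effect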
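PI4K2A activity was measured by ADP-Glo luminescence: enzyme (4 ug/mL stock) and phosphatidylinositol (1.2 mM stock) in Tris pH 7.5/MgCl2/EGTA/Triton X-100 buffer were reacted with ATP (300 microM stock) for one hour at ambient temperature.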
Pin1 inh: human Pin1 inhibition; Q13526; Pin1 FP peptide displacement, HiFluor488, 10 min; Potency, µM (doses to about 115 µM), for the others: at the highest dose activity, negative = inhibition, usual class: inhibitors; 0.009% of 390,000 active; AID 504891; active means well fitted inhibition curve with a large enough effect in the polarisation, with a control signal flat, not every such curve was filed as active; inconclusive means small, poorly fitted or top-dose-only effect, or effect the other way, or a change in a side signal; inactive means no such curve, though single readings can be large or run the other way; the % refers to the polarisation; further: potency means the concentration at half of the fitted maximal effect
GLS inh: blocks human kidney-isoform glutaminase activity; O94925; GLS enzymatic activity, qHTS titration; Potency, µM (top dose mostly 45.5 µM), inactives show at the top dose activity change, negative = inhibition, hits mostly inhibitors; 0.21% of 410,000 active; AID 624170; active means well fitted inhibition curve with a large enough effect; inconclusive means small, poorly fitted or top-dose-only effect, or another doubt; inactive means no such curve, though single readings can be large or run the other way; further: potency means the concentration at half of the fitted maximal effect
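Two-point fluorescence kinetic (t0, 30 min RT) for hKGA; glutamate detected via glutamate oxidase–HRP–Amplex Red. Substrate: 1 mM L-glutamine solution; buffer 45 mM KH2PO4, pH 8.2.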
* marks the source's active call; other numbers are inactive results; ? = inconclusive; & = joins results of further samples; [ ] = remark or other dose. Unless noted, on the % scale 0 is the no-effect control and ±100 the full control effect. This is a subset (hit frequency here may not be typical).

#1 CC(=O)CC(c1ccccc1)c1c(O)c2ccccc2oc1=O (stereo not drawn)
#2 COCc1c(N)c(C)nc(Cl)c1C#N
#3 COc1c(-c2ccc(O)cc2)oc2cc(O)cc(O)c2c1=O
#4 Cc1nccn1Cc1ccccc1
#5 COc1ccc(NC(=O)c2noc3c2CCC3)cc1
#6 CCN(CC)c1ccc2c(C)cc(=O)oc2c1
#7 Nc1cc(-c2ccccc2)ccc1O

screen / no.	1	2	3	4	5	6	7
PI4K2A block	2&2&4&-2	-20	-6	4	-14	3	3
Pin1 inh	-5%&-1%&1%	-4%	-2%	0%	?	1%	-1%
GLS inh	-5%&3%&1%&6%	0%	-10%	-13%	?	16%	132%[activator]

Record cards, from the list above. Values in the order: PI4K2A block	Pin1 inh	GLS inh
Results for `Cc1nccn1Cc1ccccc1` = 4	0%	-13%
Results for `CC(=O)CC(c1ccccc1)c1c(O)c2ccccc2oc1=O` (stereo not drawn) = 2&2&4&-2	-5%&-1%&1%	-5%&3%&1%&6%
Results for `COc1c(-c2ccc(O)cc2)oc2cc(O)cc(O)c2c1=O` = -6	-2%	-10%

Down the list, quoted from above:
Pin1 inh, compounds 1–7 → -5%&-1%&1%, -4%, -2%, 0%, ?, 1%, -1%
PI4K2A block, compounds 1–7 → 2&2&4&-2, -20, -6, 4, -14, 3, 3
GLS inh, compounds 1–7 → -5%&3%&1%&6%, 0%, -10%, -13%, ?, 16%, 132%[activator]

Screens deposited in PubChem by National Center for Advancing Translational Sciences (NCATS).
